# High-throughput results from PubChem BioAssay.
# Rango release inh: inhibition of RanGTP-driven Rango-importin beta dissociation | O95149+P62826 | Biochemical FRET Rango-importin beta, RanGTP-induced dissociation | Potency, µM (top dose mostly 46.1 µM), inactives show top-dose activity change, negative = inhibition | hit rate 0.071% among 340,000 | AID 540253; active means falling FRET ratio curve, often poorly fitted, with flat reads before Ran was added; inconclusive means other falling curves, or compound fluorescence or quenching; inactive means flat or rising ratio curve;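 also: potency is read from the fitted curve at half-maximal effect; % of control where 0% means no effect; nearly all actives have a fitted effect of over 45% in size; -100% = wells without RanGTP and RCC1; the record marks most hits as doubtful in a second field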
#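 Quantitative HTS using a FRET biosensor: 0.1 uM Rango, 0.25 uM importin beta, 0.6 uM Ran, 2 mM GTP, 0.2 uM RCC1 final, PBS with DTT, Tween-20 and BSA. Post-read taken 45 min after Ran addition.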
# miR-21 reporter: miR-21 reporter, rising signal; HeLa miR-21 FLuc reporter, luciferase, 48 h; Potency, µM (doses to about 38.3 µM), without a hit: top-dose reporter change, positive = more light; 340,000 tested, under 10 active; AID 2288; active = well fitted rising curve with a large enough effect; inconclusive = small, poorly fitted or top-dose-only effect; inactive = no such curve, though single readings can be large or run the other way;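 also: % of control where 0% means no effect; miR-21 action dims this reporter so a rising signal means less miR-21 action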
#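 HeLa cells endogenously expressing miR-21, stably carrying CMV-driven firefly luciferase with a downstream miR-21 binding site, 2000 cells/well. Titrations up to approximately 40 uM, 48 hours; luciferase luminescence read.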
# Rango-impB inh: prevents formation of the Rango-importin beta complex; Potency, µM (series often up to 92.2 µM), for inactives: at the highest dose inhibition of complex formation; Rango CFP/YFP FRET sensor + importin beta, 45 min; hit rate 0.031% among 340,000; active = rising FRET ratio curve, often small or poorly fitted; inconclusive = mostly compound fluorescence or quenching in the first reads; inactive = flat curves in all reads;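 also: potency is read from the fitted curve at half-maximal effect; 0% = DMSO wells and 100% = buffer wells lacking importin beta; nearly all actives have a fitted effect of over 15% in size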
#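 Inhibition scored from the CFP 486 nm/YFP 530 nm FRET ratio 45 min after adding 0.125 microM importin beta to 50 nM Rango biosensor preincubated 5 min with compound (room temperature, PBS with DTT, Tween-20, BSA). No-importin wells as positive control.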
# GLA inh pH 4.5: blocks human alpha-galactosidase A at pH 4.5 | purified enzyme, 4-MU-alpha-Gal fluorescence, pH 4.5 | activity change, negative = inhibition, % at 105 µM | 230,000 tested, under 10 active; inconclusive = small, poorly fitted or top-dose-only inhibition, or a rising curve; inactive = flat fitted curve, though single readings scatter; no compound was filed as active;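 also: 0% = full activity with enzyme and -100% = basal without enzyme; dose as in the result columns while the protocol names 77 µM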
# Target sequence (P06280 whole entry, looked up): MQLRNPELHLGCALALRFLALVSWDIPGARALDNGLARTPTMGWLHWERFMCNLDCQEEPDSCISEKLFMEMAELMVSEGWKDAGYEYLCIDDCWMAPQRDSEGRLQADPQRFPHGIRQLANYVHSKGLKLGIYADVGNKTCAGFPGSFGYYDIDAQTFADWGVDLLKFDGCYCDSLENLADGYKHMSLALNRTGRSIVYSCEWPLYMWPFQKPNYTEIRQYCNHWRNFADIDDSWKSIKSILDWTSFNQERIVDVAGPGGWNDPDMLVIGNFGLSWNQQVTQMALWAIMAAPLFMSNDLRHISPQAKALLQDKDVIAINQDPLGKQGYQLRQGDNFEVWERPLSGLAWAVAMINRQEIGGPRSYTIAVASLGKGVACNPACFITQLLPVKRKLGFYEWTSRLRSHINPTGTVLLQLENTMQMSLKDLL
# Starred values were filed as active, the others as inactive; ? = inconclusive; . = not tested or not shown. These rows are one share of the data, so the mix of outcomes need not match the whole.
Rango release inh | miR-21 reporter | Rango-impB inh | GLA inh pH 4.5 | SMILES
-9.7% | 0.6% | -0.7% | . | CCN(CC)S(=O)(=O)c1ccc(S(=O)(=O)N2CCCC(C(=O)NC3CC3)C2)cc1 (stereo not given)
0.0% | -0.2% | 5.4% | -0.3 | COc1cccc(NC(=O)Cn2c(=O)n(-c3cc(OC)c(OC)c(OC)c3)c(=O)c3ccccc32)c1
30.8% | 2.5% | -2.4% | . | COc1ccccc1N1CCN(C2CCCN(Cc3cccc(O)c3)C2)CC1 (stereo not given)
-9.5% | 1.3% | -1.2% | 1.5 | Cc1ccc2[nH]ccc(=O)c2c1
-11.4% | -13.5% | -2.5% | -4.0 | CNc1nc2c3ccccc3n(C(C)=O)c2s1
-1.3% | 16.4% | 0.7% | 4.0 | Cc1cc2nnc(SCC(=O)NCc3cccs3)n2c2ccccc12
8.1% | -4.6% | 0.4% | . | Cc1ccccc1-c1nc(CS(=O)(=O)CC(=O)NCCCN2CC(C)CC(C)C2)c(C)o1 (stereo not given)
8.7% | . | -1.4% | . | O=C(COC(=O)CNC(=O)c1ccccc1Cl)NC1CC1
10.3% | -9.7% | -1.9% | -4.2 | CCOC(=O)C1=C(c2ccccc2)N(C)C(=O)NC1c1ccc(O)c(OC)c1 (stereo not given)
3.6% | -9.9% | -7.4% | 0.0 | CCn1c(SCc2nc(CC(=O)Nc3ccccc3OC)no2)nnc1-c1cccs1

Rango release inh | miR-21 reporter | Rango-impB inh | GLA inh pH 4.5 | SMILES
-13.4% | -45.9% | 2.8% | 8.3 | N#C/C(=N\Nc1ccc(Cl)cc1)C(=N)N1CCCCC1
-10.4% | -9.9% | 2.1% | -5.7 | O=C(O)c1ccc2c(c1)CC(c1ccccc1)OC2=O (stereo not given)
-10.7% | 6.7% | 1.7% | -7.4 | CCc1ccc(Nc2c([N+](=O)[O-])c(=O)oc3ccccc23)cc1
-7.9% | . | -1.3% | . | CCN(Cc1nc2cc(Cl)ccc2c(=O)[nH]1)C(=O)c1ccc(C)c(NC(=O)c2ccco2)c1
0.9% | -19.4% | 0.5% | -13.6 | Cc1nc(SCC(=O)c2c[nH]c3ccccc23)n[nH]1
-0.7% | . | -3.7% | . | O=C(COC(=O)/C=C/c1ccc(C(F)(F)F)cc1)NCC1CCCCC1
-0.3% | 5.8% | -0.4% | . | COc1ccc(N2CCN(S(=O)(=O)CCNC(=O)COc3ccccc3OC)CC2)cc1
-7.8% | 2.7% | -0.7% | 3.6 | CN(Cc1ccccc1)C(=O)C1CCCN(Cc2cccc(Cl)c2)C1 (stereo not given)
18.0% | -13.0% | -3.7% | -21.9 | COc1ccc(/C=N/Nc2c(Cl)cc(Cl)cc2Cl)cc1CN1CCOCC1
-1.0% | -6.4% | 0.6% | 3.2 | COc1ccccc1C(=O)N1CCN=C1c1ccccc1

Rango release inh | miR-21 reporter | Rango-impB inh | GLA inh pH 4.5 | SMILES
-4.3% | -1.7% | 1.2% | . | COc1cc(C(=O)N2CCN(Cc3ccc4c(c3)OCO4)CC2)cc(OC)c1OC
20.0% | . | ? | . | CC(=O)OC1(C(C)=O)CCC2C3CC4OC45CC(O)CCC5(C)C3CCC21C (stereo not given)
-9.0% | -7.3% | -0.5% | -6.2 | Cc1cc([N+](=O)[O-])nn1CCCC(=O)Nc1ccc(Cl)cc1Cl
-8.6% | 0.6% | 0.9% | ? | CC(CC(=O)O)CC(=O)Nc1cc([N+](=O)[O-])ccc1O (stereo not given)
3.4% | -2.9% | 1.9% | -10.8 | Cc1c(N2CCCC2)cc2c(c1NC(=O)c1ccccc1Cl)C(C)(C)CC2(C)C
2.9% | -4.9% | 1.6% | -18.3 | CCCS(=O)(=O)N1CCC(C(=O)NCCCOCC)CC1
-16.3% | 7.4% | 2.7% | 5.3 | Cc1ccc2nc(C3CCN(CC(=O)Nc4ccc5c(c4)OCCO5)CC3)[nH]c2c1
0.2% | -0.8% | 0.6% | -1.5 | CCC(=O)NNc1nc2c(C)cccc2s1
-1.2% | -51.2% | 0.6% | 7.5 | C/C(=N\NC(=O)c1cccs1)c1ccc2c(c1)OCO2
0.1% | 13.3% | -1.1% | 0.6 | COCC(C)n1c(SCc2cc(C(=O)OC)c(C)o2)nc2ccccc2c1=O (stereo not given)

Rango release inh | miR-21 reporter | Rango-impB inh | GLA inh pH 4.5 | SMILES
4.0% | -1.2% | -0.9% | . | CCN1CCN(C(=O)CN2C(=O)COc3ccc(S(=O)(=O)N4CCOCC4)cc32)CC1
-5.9% | -6.7% | 6.9% | 1.8 | COC(=O)c1ccc(CSc2nnc(-c3ccncc3)o2)o1
10.8% | -4.6% | 2.0% | -11.7 | COc1ccc(-c2nc(C)c(C(C)=O)n2O)cc1[N+](=O)[O-]
20.0% | -0.8% | -2.5% | -19.0 | COc1ccc(-c2csc3ncnc(Oc4cccc5ccc(C)nc45)c23)cc1
-5.7% | 0.6% | 0.5% | . | O=C(Cc1ccccc1Cl)N1CCOCC1
-21.1% | -5.4% | -2.2% | -5.6 | Cc1c(NC(=O)CSc2nc(-c3ccco3)cc(C(F)(F)F)n2)c(=O)n(-c2ccccc2)n1C
-1.6% | 0.9% | 3.0% | 5.4 | COCCCn1c2nc3ccccc3nc2c2c(=O)n(Cc3ccc(Cl)cc3)cnc21
-13.0% | -0.1% | -3.8% | -29.7 | FC(F)(F)C1=CC(c2ccc(Cl)cc2)=NCCN1
12.4% | -19.2% | 0.4% | . | O=C(Nc1ccc2c(c1)OCO2)C1CC(=O)N(c2cccc(Cl)c2)C1 (stereo not given)
-3.7% | 0.7% | -1.7% | 1.7 | CC(=O)N1CCN(CC(O)COc2ccc(OCc3ccccc3)cc2)CC1 (stereo not given)

Rango release inh | miR-21 reporter | Rango-impB inh | GLA inh pH 4.5 | SMILES
-0.3% | . | 0.6% | . | CC(=O)c1ccc(-c2ccc(C(=O)NCC3CCCO3)o2)cc1 (stereo not given)
-5.9% | -24.3% | 8.2% | -6.1 | Nc1ccc2nc(N3CCOCC3)sc2c1
-7.0% | 15.5% | 0.9% | 8.6 | NC(=NCCc1c[nH]c2ccccc12)NS(=O)(=O)c1ccc2ccccc2c1
-10.4% | -19.8% | 0.3% | -2.6 | O=[N+]([O-])c1ccccc1-c1cc(-c2cc(Cl)ccc2O)n[nH]1
1.8% | . | 2.5% | . | COc1ccc(C2=NOC(Cn3nc(-c4ccccc4)cc3C(=O)NCc3cccs3)C2)cc1 (stereo not given)
-1.1% | -4.0% | 0.0% | -1.9 | O=C(Cn1c(=O)n(CC2CCCO2)c(=O)c2ccccc21)c1ccccc1 (stereo not given)
-2.0% | 7.9% | -1.7% | . | O=C1Nc2cc(Br)ccc2C1(O)c1ccccc1O (stereo not given)
-5.5% | -16.4% | -1.0% | . | CCn1cnc2scc(-c3ccc(OC)cc3)c2c1=O
-18.0% | . | 1.0% | . | CN(C(=O)c1cccc(NC(=O)Cc2cccc(NC(=O)C3CCN(C(=O)C4CC4)CC3)c2)c1)C1CC1
16.3% | -7.5% | 3.4% | . | NS(=O)(=O)c1ccc(NC(=O)Nc2cccc3ccccc23)cc1

Rango release inh | miR-21 reporter | Rango-impB inh | GLA inh pH 4.5 | SMILES
5.7% | -1.0% | ? | 1.6 | Cc1cccc(NC(=O)c2ccccc2NC(=O)C(C)(C)C)n1
11.0% | -3.8% | -4.0% | -9.4 | CN(C(=O)Nc1ccc(S(=O)(=O)N(C)C)cc1)C1CCCCC1
0.7% | -7.8% | -3.1% | -4.7 | O=C(Cc1ccccc1)Nc1ccccc1N1CCOCC1
-0.9% | 23.4% | 1.9% | . | CCCC(=O)NC(c1ccc(C)cc1)c1ccc2cccnc2c1O (stereo not given)
2.6% | -1.9% | 0.8% | 11.7 | COC(=O)c1sccc1NC(=S)N1CCC(C(N)=O)CC1
17.5% | -5.1% | 2.1% | -3.2 | CCN(CC)S(=O)(=O)c1ccc(NC(=O)C(OC)c2ccccc2)cc1 (stereo not given)
16.6% | 0.3% | -0.5% | 1.8 | Cn1nc(C(=O)Nc2ccc(S(=O)(=O)N3CCOCC3)cc2)c2ccccc2c1=O
13.6% | -1.9% | -0.6% | -6.7 | C/C(=N\NC(=S)NC(C)C)c1ccccc1OC(F)F
-17.2% | -25.8% | 1.0% | -13.9 | Cc1ccccc1-c1nc(C#N)c(NCc2ccco2)o1
-0.6% | -41.7% | 5.2% | . | O=C(NNC(=S)Nc1ccc(F)cc1F)c1ccco1

Rango release inh | miR-21 reporter | Rango-impB inh | GLA inh pH 4.5 | SMILES
-1.3% | -11.1% | -3.0% | -8.3 | Cc1ccc(-c2nn(-c3ccccc3)cc2CN(Cc2ccccc2)C(=O)CCC(=O)O)o1
-12.9% | 0.0% | -3.3% | 2.9 | O=C(O)COc1c(Cl)cc(/C=C2\NC(=O)NC2=O)cc1Br
? | -5.9% | ? | 9.1 | CCN1C(=O)/C(=C2/SC(C)=C(C)N2CC)SC1=S
-14.3% | 17.7% | 0.5% | -2.7 | O=C(NCc1cccnc1)c1cc(-c2ccc(Cl)cc2)oc1C(F)(F)F
10.4% | -0.5% | ? | 0.0 | O=C(CCNC(=O)c1ccccc1Cl)Nc1ccc(S(=O)(=O)Nc2ncccn2)cc1
14.6% | 0.3% | -3.8% | . | Cc1cc(=O)c(C(=O)O)nn1-c1ccccc1F
4.6% | . | -1.6% | . | Cc1ccc(C(=O)OCC(=O)NCc2ccco2)cc1S(=O)(=O)N1CCOCC1
-4.1% | -1.1% | 0.4% | -9.5 | Cc1ccc(S(=O)(=O)N(CC(=O)NCc2ccco2)Cc2ccccc2F)cc1
-12.1% | -0.9% | -3.5% | . | COc1ccc(N(C(=O)c2snc(C(N)=O)c2N)C(C(=O)NC2CCCC2)c2ccc(C)o2)c(OC)c1 (stereo not given)
0.1% | -21.0% | -3.1% | -2.4 | NS(=O)(=O)c1ccc(CCNC(=O)NC2(C(F)(F)F)Oc3ccccc3O2)cc1

Rango release inh | miR-21 reporter | Rango-impB inh | GLA inh pH 4.5 | SMILES
-3.2% | -3.7% | -1.9% | . | Cc1ccc(CN2CCNC(=O)C2CC(=O)NC2CCCCCC2)cc1 (stereo not given)
0.8% | . | 2.6% | . | CC(=O)Oc1cc2c(c3ccccc13)CCC2=O
5.9% | 2.8% | -0.8% | 1.3 | S=C(Nc1ccccc1Oc1ccccc1)Nc1cccc(Cl)c1Cl
0.4% | 0.7% | -3.2% | . | O=C(c1ccc(Cl)cc1Cl)N1CCC(C(=O)N2CCOCC2)CC1
-3.6% | -8.2% | 1.8% | 0.6 | O=[N+]([O-])c1ccc(Cc2ccncc2)cc1
-0.2% | -45.8% | 0.4% | -10.5 | Cc1ccc(NC(=O)Nc2ccc3c(c2)nc(C)n3C)cc1
9.1% | -5.6% | 3.8% | -4.7 | O=C(/C=C/c1ccccc1)NC(=S)Nc1ccc(N2CCOCC2)cc1
0.6% | -16.8% | -1.2% | . | CCC(=O)N1CCCC(C(=O)c2ccc(-c3ccccc3)cc2)C1 (stereo not given)
2.4% | -0.7% | 4.1% | 7.5 | Cc1nc(C(=O)O)nn1-c1cc(Cl)ccc1Cl
26.2% | 3.9% | 2.4% | . | Cc1ccc(-c2csc(N3CCN(c4cc5c(cc4Cl)nc(-c4ccncc4)n5CCOCCO)CC3)n2)cc1

Rango release inh | miR-21 reporter | Rango-impB inh | GLA inh pH 4.5 | SMILES
2.6% | -11.1% | 1.1% | -1.7 | CCOC(=O)Cc1csc(NC(=O)Nc2ccccc2)n1
-3.7% | 0.4% | 2.1% | -4.6 | COc1ccc(S(=O)(=O)N(CCCN2CCCC2=O)Cc2cc3c(C)ccc(C)c3[nH]c2=O)cc1
1.2% | 2.2% | -1.0% | . | O=C(NNC(=O)C1CC1)c1cc(Cl)nc2ccccc12
5.8% | -4.9% | 2.7% | . | Cc1nn(CC(=O)NC2CCCCC2)c(=O)c2cccn12
-1.3% | -7.4% | 0.6% | -0.6 | FCCCOc1ccc(-c2nccc(-c3ccc(Cl)cc3)n2)cc1
? | -7.6% | 2.9% | -20.3 | Cc1nc2sc(C(c3cccs3)N3CCN(c4cccc(Cl)c4)CC3)c(O)n2n1 (stereo not given)
